High-throughput results from PubChem.
EPAC1 ag val: human EPAC1 agonism, validation; Potency, µM, for inactives: max response, positive = active, most hits filed as activators; O95398; 1% of 16,000 active; EPAC1 Rap1b BODIPY-GDP exchange, fluorescence; active = well fitted activation curve with a large enough effect; inconclusive = small, poorly fitted or top-dose-only effect; inactive = no such curve, though single readings can be large or run the other way;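 also: nearly all actives have a fitted effect of over 70% in size; series mostly up to about 76 or 150 µM; scaled to a cAMP control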
Target sequence (O95398 whole entry, looked up): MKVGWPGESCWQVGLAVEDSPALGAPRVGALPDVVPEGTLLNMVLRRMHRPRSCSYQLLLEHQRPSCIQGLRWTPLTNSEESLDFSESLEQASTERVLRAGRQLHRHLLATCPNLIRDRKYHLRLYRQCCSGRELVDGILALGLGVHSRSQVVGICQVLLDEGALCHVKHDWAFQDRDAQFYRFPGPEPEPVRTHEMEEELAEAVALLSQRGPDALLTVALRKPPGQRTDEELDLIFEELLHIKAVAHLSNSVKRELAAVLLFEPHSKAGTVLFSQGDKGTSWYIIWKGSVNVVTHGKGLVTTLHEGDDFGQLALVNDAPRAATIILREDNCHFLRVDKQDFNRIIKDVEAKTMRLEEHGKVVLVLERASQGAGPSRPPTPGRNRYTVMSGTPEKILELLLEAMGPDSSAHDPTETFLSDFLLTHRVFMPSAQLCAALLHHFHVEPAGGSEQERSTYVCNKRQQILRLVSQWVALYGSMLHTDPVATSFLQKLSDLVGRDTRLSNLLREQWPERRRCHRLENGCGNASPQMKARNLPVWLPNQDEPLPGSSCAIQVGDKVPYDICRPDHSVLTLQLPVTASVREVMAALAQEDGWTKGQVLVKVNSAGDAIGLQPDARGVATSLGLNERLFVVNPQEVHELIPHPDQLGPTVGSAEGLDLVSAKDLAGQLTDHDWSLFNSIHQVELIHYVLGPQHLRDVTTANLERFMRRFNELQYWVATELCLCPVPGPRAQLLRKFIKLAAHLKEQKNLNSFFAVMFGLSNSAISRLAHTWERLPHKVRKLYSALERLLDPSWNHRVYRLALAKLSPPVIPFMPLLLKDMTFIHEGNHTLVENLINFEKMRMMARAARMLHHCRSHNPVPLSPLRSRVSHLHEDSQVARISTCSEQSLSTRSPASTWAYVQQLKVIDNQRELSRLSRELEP
Numbers without * were called inactive; ? = inconclusive; & = joins results of further samples; ! = a repeat was not active; [ ] = remark or other dose. % is scaled to controls: 0 for no effect and ±100 for the full control effect; potency is read from the fitted curve at half-maximal effect. These rows are one share of the data, so the mix of outcomes need not match the whole.

Preview:
EPAC1 ag val	Structure
-11%	Cc1cc(C)c(S(=O)(=O)Nc2cccc(C(F)(F)F)c2)c(C)c1
?	O=C1[C@H](CC[C@H](O)c2ccc(F)cc2)[C@@H](c2ccc(O)cc2)N1c1ccc(F)cc1
-1%	Cc1cc(C)nc(-c2cccc3c2OC(CNC(=O)C2CCOC2)C3)n1 (stereo unspecified)
27%	C=C[C@@H]1c2ccccc2N(S(=O)(=O)c2ccc(C)cc2)[C@H](c2ccc(OC(C)=O)cc2)C1(C#N)C#N

All compounds of this part, previewed entries included:
EPAC1 ag val	Structure
-11%	Cc1cc(C)c(S(=O)(=O)Nc2cccc(C(F)(F)F)c2)c(C)c1
?	O=C1[C@H](CC[C@H](O)c2ccc(F)cc2)[C@@H](c2ccc(O)cc2)N1c1ccc(F)cc1
-1%	Cc1cc(C)nc(-c2cccc3c2OC(CNC(=O)C2CCOC2)C3)n1 (stereo unspecified)
27%	C=C[C@@H]1c2ccccc2N(S(=O)(=O)c2ccc(C)cc2)[C@H](c2ccc(OC(C)=O)cc2)C1(C#N)C#N
-116%[inhibitor]	CC(C)[C@@H](C)/C=C/[C@@H](C)[C@H]1CC[C@H]2/C(=C/C=C3\C[C@@H](O)CC[C@@H]3C)CCC[C@]12C
5%&-36%	CC(C(=O)O)c1cccc(Oc2ccccc2)c1 (stereo unspecified)
-4%	O=C(Cc1cscn1)N1CCOc2ccc(CN3CCN(c4ccccn4)CC3)cc2C1
-86%[inhibitor]	CCCCCCc1ccc(N2C[C@H](CCCCC)[C@@H](CC(=O)NCc3ccccc3)C2=O)cc1

The list goes on.
EPAC1 ag val	Structure
16%	Cc1cc(C)c(NC(=O)CN(CC(=O)O)CC(=O)O)c(C)c1Br
-9%	COC(=O)C[C@H]1c2cc(C(F)(F)F)ccc2S(=O)(=O)N1Cc1ccc(OC)cc1
-6%	Cc1ccccc1C(=O)NC(C)c1nnc2n1CCN(Cc1ccccc1F)CC2 (stereo unspecified)
-122%[inhibitor]	CCCCC(CC)COC(=O)c1ccccc1C(=O)O (stereo unspecified)
2%	CCCCCCOC(=O)C1(O)CC2OC1(C)n1c3ccccc3c3c4c(c5c6ccccc6n2c5c31)C(=O)NC4 (stereo unspecified)
-1%	Cc1cc2c(cc1Cl)N(C(=O)Nc1ccnc3ccccc13)CC2
40µM*!	Clc1ccc(C(Cn2ccnc2)OCc2c(Cl)cccc2Cl)c(Cl)c1 (stereo unspecified)
-7%	O=C(c1ccccc1-n1cccn1)N1CCOc2c(cc(-c3ncc(C(F)(F)F)cc3Cl)cc2OCC2CCCO2)C1 (stereo unspecified)

New compounds follow:
EPAC1 ag val	Structure
7%	COc1cccc(-c2ccc(O)c(CNC(c3ccccc3)c3ccc(Cl)cc3)c2)n1 (stereo unspecified)
-9%	O=C(N/N=C/c1ccc([N+](=O)[O-])o1)c1ccc(O)cc1
-29%	C[C@H]1[C@H]2CC[C@H]3[C@@H]4CC=C5C[C@@H](N(C)C)CC[C@]5(C)[C@H]4CC[C@]23CN1C
-18%	COc1ccccc1N1CCN(C[C@@H]2CN3C(=O)N(C)c4ccccc4C3=N2)CC1
-24%	Cc1nc(Nc2ncc(C(=O)Nc3c(C)cccc3Cl)s2)cc(N2CCN(CCO)CC2)n1
-20%	Oc1ccc(C(O)CNCCCCCCNCC(O)c2ccc(O)c(O)c2)cc1O (stereo unspecified)
-20%	COc1cc(OC)c(OC)cc1CN1CCOc2ccc(CN3CCN(C(C)=O)CC3)cc2C1
19%	Cc1cnc(CNc2ncnc3ccc(-c4cccc(C#N)c4)cc23)cn1

Next part:
EPAC1 ag val	Structure
24%	Cc1ncc(CO)c(CO)c1O
-13%	CCC1CN(CC(=O)NCc2n[nH]c3c2CCCCC3)Cc2cc(OC)ccc2O1 (stereo unspecified)
18%	COC(=O)N1CCC[C@@]2(CCN(C(c3ccccc3)c3ccccc3)C2)C1
-10%	NCC[C@H](O)C(=O)N[C@@H]1C[C@H](N)[C@@H](O[C@H]2O[C@H](CN)[C@@H](O)[C@H](O)[C@H]2O)[C@H](O)[C@H]1O[C@H]1O[C@H](CO)[C@@H](O)[C@H](N)[C@H]1O
1%	CCN(CC)CCOc1ccccc1OC
?	NC(=O)NC1NC(=O)NC1=O (stereo unspecified)
-79%[inhibitor]	CC1=C(C/C=C(\C)CCC[C@H](C)CCC[C@H](C)CCCC(C)C)C(=O)c2ccccc2C1=O
17%	COc1ccc(/C=C/C(=O)c2ccc(O)cc2O)cc1

Compounds listed so far containing a cyano group:
EPAC1 ag val	Structure
27%	C=C[C@@H]1c2ccccc2N(S(=O)(=O)c2ccc(C)cc2)[C@H](c2ccc(OC(C)=O)cc2)C1(C#N)C#N
19%	Cc1cnc(CNc2ncnc3ccc(-c4cccc(C#N)c4)cc23)cn1

Continuation.
EPAC1 ag val	Structure
?	CC(C)=CCC/C(C)=C\COc1c2ccoc2cc2oc(=O)ccc12
5%	CN(C)c1ncc2nc(-c3ccc(F)cc3)c(=O)n(C)c2n1
?	OC[C@H]1O[C@@H](n2cnc3c(Nc4ccccc4)ncnc32)[C@H](O)[C@@H]1O
5%&14%&23%	O=C(C1CCCCC1)N1CC(=O)N2CCc3ccccc3C2C1 (stereo unspecified)
-15%	CCNc1ncc2nc(-c3ccc(OC)cc3)c(=O)n(C)c2n1
5%	CCCn1c(=O)c2[nH]c(-c3ccc(OCC(=O)Nc4ccc(C(C)=O)cc4)cc3)nc2n(CCC)c1=O
-2%	COCc1c(C(=O)NC2CCOC(C)(C)C2)cnn1-c1nccc(-c2cccs2)n1 (stereo unspecified)
-37%[inhibitor]	CC(C)CN1CCC(=O)N([C@H](COc2ccccc2)c2ccccc2)CC1

The results go on:
EPAC1 ag val	Structure
28%	COc1ccc(CN2CCC(=O)N([C@H](CO)CC(C)C)CC2)cc1OC
-29%	O=C(Nc1cccc(C(F)(F)F)c1)c1cc(Br)cc(Br)c1O
-12%	Cc1cc(=O)c(C(=O)N[C@@H](C(=O)N[C@@H]2C(=O)N3C(C(=O)O)=C(CSc4nnnn4C)CS[C@H]23)c2ccc(O)cc2)c[nH]1
-4%	O=C(O)C1OC(O)C(O)C(O)C1O (stereo unspecified)
-31%&-16%&-25%[inhibitor]	CC(C)(Sc1cc(C(C)(C)C)c(O)c(C(C)(C)C)c1)Sc1cc(C(C)(C)C)c(O)c(C(C)(C)C)c1
13%	CN(C)Cc1ccccc1-c1nccc(Nc2ccc(F)cc2)n1
7%	CCC1CN(Cc2cn[nH]c2-c2ccc(OC)cc2)Cc2cc(OC)ccc2O1 (stereo unspecified)
-17%	Cc1ccccc1-c1nccc(NCc2cccs2)n1

Additional results:
EPAC1 ag val	Structure
-13%	Cn1nnc2c(C(N)=O)ncn2c1=O
-80%[inhibitor]	O=C(c1cc(C(F)(F)F)cc(C(F)(F)F)c1)N1CCC2(CC1)CCN(c1ncccn1)CC2
?	CC(CN(C)C)CN1c2ccccc2Sc2ccccc21 (stereo unspecified)
?	CCN1CCN(C(=O)c2cnn(-c3ncc4c(n3)-c3ccccc3CCC4)c2COC)CC1
-41%&-50%[inhibitor]	CC(=O)Oc1ccc(C2(c3ccc(OC(C)=O)cc3)C(=O)Nc3ccccc32)cc1
8%	COc1cc(C(=O)OC2CC[C@]3(C)C4CCC5[C@]6(O)CC(O)[C@]7(O)C(CN8CC(C)CCC8[C@]7(C)O)[C@]6(O)C[C@@]53O[C@]24O)cc(OC)c1OC (stereo partly specified)
-14%	CN1CCN(C2=Nc3ccccc3Cc3ccccc32)CC1
-43%[inhibitor]	O=c1cnc2cnc(N3CCOCC3)nc2n1Cc1ccc(F)cc1

(list continues)
EPAC1 ag val	Structure
-43%[inhibitor]	O=C(c1cnccn1)N1CCC2(CCCN(c3ccncc3)C2)CC1
-46%[inhibitor]	Cc1ccc(CN2[C@@H]3c4ccccc4C[C@@H]3OCCS2(=O)=O)cc1
2%	N[C@@H](Cc1c[nH]c2ccccc12)C(=O)O
-21%	O=C1C(=O)c2ncccc2-c2cccnc21
-26%	COc1ccc(-c2nc3cnc(OC)nc3n(C[C@H]3CCCO3)c2=O)cc1
14%	COc1ncc2nc(-c3ccc(Cl)cc3)c(=O)n(Cc3cccs3)c2n1
-11%	COc1cccc(O)c1CN1CCC2(CC1)c1ccccc1[C@@H](NC(=O)c1ccsc1)[C@@H]2OC
100µM*	COc1ccccc1CNc1nc(-c2cccc(NS(C)(=O)=O)c2)nc2ccccc12

(cont.)
EPAC1 ag val	Structure
-20%	CCN1CCN(C(=O)c2cc(NC(=O)COC)cc3nc(-c4ccncc4)n(C)c23)CC1
?	CCN1CCN(C(=O)NC(C(=O)NC2C(=O)N3C2SC(C)(C)C3C(=O)O)c2ccccc2)C(=O)C1=O (stereo unspecified)
-10%	COCc1ccc(CN2CCOc3ccc(C4=CCCCC4)cc3C2)o1
8%	COC(=O)[C@H](CC(C)C)N(Cc1ccccc1)S(=O)(=O)N(Cc1ccc(OC)cc1)[C@@H](CC(C)C)C(=O)OC
-1%&4%&-19%	CC(C)NC[C@H](O)c1ccc(O)c(O)c1
7%	CC(COc1ccccc1)NN (stereo unspecified)
16%	C=CCSCC(N)C(=O)O (stereo unspecified)
?	Cc1sc2ccccc2[n+]1CCC[n+]1c(C)sc2ccccc21

Next section
EPAC1 ag val	Structure
-7%&-4%	O=C(O)CNC(=O)C(CS)Cc1ccccc1 (stereo unspecified)
-27%	CO[C@H]1O[C@@H]2O[C@@]3(C)CC[C@H]4[C@H](C)CC[C@@H]([C@H]1C)[C@@]24OO3
-22%	COc1ccc(NC(=O)N2CCCC3(CCN(C(=O)c4ccco4)CC3)C2)cc1
14%	COc1ccc(-c2nc3cnc(Nc4cccc(OC)c4)nc3n(C)c2=O)cc1
-66%[inhibitor]	O=C(Nc1cccc(F)c1)N1CCC2(CC1)CCN(S(=O)(=O)c1ccccc1)CC2
11%	Nc1ccccc1N
?	O=S1(=O)CCO[C@H]2Cc3ccccc3[C@H]2N1Cc1ccccc1Br
-12%	O=c1c(-c2cc(F)cc(F)c2)nc2cnc(N3CCNCC3)nc2n1C1CC1

(listing goes on)
EPAC1 ag val	Structure
-29%	Cc1ccnc2ncccc12
14%	COc1ccc(C(=O)N2CCC[C@@]3(CCN(C(=O)NC(C)C)C3)C2)cc1
1%	COc1ccc(-n2ccc(-c3sc(NCc4cc(OC)c5c(c4)OCO5)nc3C)n2)cc1
-25%	CN(C)CCc1c[nH]c2ccc(Cn3cncn3)cc12
-38%[inhibitor]	CN1CC(=O)N2C(Cc3c([nH]c4ccccc34)[C@H]2c2ccc3c(c2)OCO3)C1=O (stereo partly specified)
?	COc1nc(N)nc2c1ncn2[C@@H]1O[C@H](CO)[C@@H](O)[C@@H]1O
-47%[inhibitor]	O=C(c1csnn1)N1CCC2(CC1)CCN(c1ccncc1)CC2
-34%[inhibitor]	O=C(c1ccco1)N1CCC2(CCN(Cc3ccncc3)CC2)CC1

Copied from the list:
Under EPAC1 ag val, `Cc1ccnc2ncccc12` has -29%
Under EPAC1 ag val, `COc1ccc(C(=O)N2CCC[C@@]3(CCN(C(=O)NC(C)C)C3)C2)cc1` has 14%
Under EPAC1 ag val, `COc1ccc(-n2ccc(-c3sc(NCc4cc(OC)c5c(c4)OCO5)nc3C)n2)cc1` has 1%
Under EPAC1 ag val, `CN(C)CCc1c[nH]c2ccc(Cn3cncn3)cc12` has -25%
Under EPAC1 ag val, `O=C(c1ccco1)N1CCC2(CCN(Cc3ccncc3)CC2)CC1` has -34%[inhibitor]

The list goes on.
EPAC1 ag val	Structure
26%	CN(C)Cc1ccccc1-c1cc(NCc2cccs2)ncn1
16%	CO/N=C(/C(=O)NC1C(=O)N2C(C(=O)O)=C(COC(N)=O)CSC12)c1ccco1 (stereo unspecified)
17%&6%	COc1cc(CC(=O)O)ccc1O
-54%[inhibitor]	CN(C)c1ccc(/C=C/c2cc[n+](C)c3ccccc23)cc1
-1%	O=C1CCCC2[C@@H]3CCC[N@+]4([O-])CCC[C@H](CN12)C34 (stereo partly specified)
-2%	COc1ccc2c(OC)c3ccoc3nc2c1OC
-6%	C/C=C1/C(=O)C[C@@H]2[C@H]3CCC4=CC(=O)CC[C@]4(C)[C@@H]3CC[C@]12C
11%	COc1ccc(/C=C/C(=O)c2cccs2)cc1OC

Additional results.
EPAC1 ag val	Structure
-9%	O=CN1CCCN(C(=O)c2cc(NC(=O)c3ccccc3)cc3ncn(C4CCCC4)c23)CC1
4%	NC(=O)NCCC[C@H](N)C(=O)O
-29%	COCCn1c(=O)c(-c2cccc(Cl)c2)nc2cncnc21
-3%	COC(=O)[C@@H]1CCCN1Cc1ccc2c(c1)CN(Cc1ccc3c(c1)OCCO3)CCO2
11%	CN(Cc1ccco1)Cc1cc(-c2ccnc3cc(Cl)ccc23)ccc1O
?	CCC1(C2CCN(Cc3cc4ccccc4o3)CC2)NC(=O)N(CC2COc3ccccc3O2)C1=O (stereo unspecified)
-3%	O=C(Cn1cncn1)N1CCOc2ccc(CN3CCN(c4ccccc4)CC3)cc2C1
-49%[inhibitor]	O=C(c1cc(C(F)(F)F)cc(C(F)(F)F)c1)N1CCC2(CC1)CN(c1ccccc1)C2

Following part:
EPAC1 ag val	Structure
1%	OC1(c2cccnc2)CCN(Cc2ccc3c(c2)CN(Cc2cccc4nccnc24)CCO3)CC1
-7%	COc1cc(=O)n2c(c1C(=O)N(C)Cc1cscn1)CCN(C(=O)c1cccc(C)c1C)CC2
-42%[inhibitor]	N#Cc1cccc(-c2nccc(NCc3cccnc3)n2)c1
-7%	C=C1C[C@H]2[C@@H]3C=C(C)C4=CC(=O)CC[C@]4(C)[C@H]3CC[C@]2(C)[C@@]1(OC(C)=O)C(C)=O
-33%	Cc1nc2cnc(N3CCN(C)CC3)nc2n(Cc2ccc(F)cc2)c1=O
-14%	CC(C)(C)NC[C@H](O)COc1cccc2c1CCCC2=O
?	COc1ccccc1-c1ccc2ncnc(NCc3ccccc3)c2c1
4%	COc1cc(C(=O)NS(=O)(=O)c2ccccc2C)ccc1Cc1cn(C)c2ccc(NC(=O)OC3CCCC3)cc12
?	COc1ccc(C(=O)O)c(O)c1OC
